# From PubChem BioAssay
# Vaccinia inh: blocks a specific stage of Vaccinia orthopoxvirus infection | Vaccinia-infected cells, mCherry/Venus stage reporter fluorescence; hits give low values; some inactives read as strong as hits | activity change (mCherry), % (no concentration beside the values) | 0.01% of 89,000 active | AID 1053133;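 active means mCherry past -33% and 40 or more points under the early reporter, replicates agreeing; inconclusive means past -33% without that gap or agreement; tested in A549 cells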;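 further: scaled between vehicle wells and reference inhibitor wells; 23 nL library stock went into each well; one replicate is shown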
# Vaccinia inh Venus: second read-out of Vaccinia inh, no call of its own (marks repeat the call); activity change (Venus), %; measured here: Venus reporter, other viral stage;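 negative = less Venus signal; first of two replicates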
# * hit, by the source's call; ? = inconclusive; nt = no result given.
SMILES,Vaccinia inh,Vaccinia inh Venus
Cc1ccc(S(=O)(=O)Nc2ccc3c(c2)C(=O)N([C@@H](C)CO)C[C@@H](C)[C@H](CN(C)C(=O)NC2CCCCC2)OCCCC[C@@H](C)O3)cc1,?,nt
O=C(C[C@H]1C=C[C@@H](NC(=O)Nc2ccc3c(c2)OCO3)[C@H](CO)O1)NCc1ccc(F)cc1,8,-1
CCC(=O)N(C)C[C@@H]1Oc2cc(C#Cc3ccccc3)ccc2S(=O)(=O)N([C@@H](C)CO)C[C@H]1C,-19,-10
O=C(C[C@@H]1CC[C@@H](NC(=O)Nc2cccc(F)c2)[C@H](CO)O1)NCC1CC1,-3,-1
CC(=O)N(C)C[C@@H]1Oc2cc(-c3ccncc3)ccc2S(=O)(=O)N([C@H](C)CO)C[C@@H]1C,17,3
CCCN(C)C[C@H]1Oc2ncc(-c3cccc(C(=O)N(C)C)c3)cc2C(=O)N([C@@H](C)CO)C[C@@H]1C,38,15
COCC(=O)N(C)C[C@@H]1Oc2cc(Br)ccc2S(=O)(=O)N([C@@H](C)CO)C[C@@H]1C,16,6
C[C@@H]1CN([C@H](C)CO)C(=O)Cc2cc(NC(=O)Cc3ccccc3)ccc2O[C@H]1CN(C)S(=O)(=O)c1ccc(Cl)cc1,4,-9
CCN1[C@H](C(=O)Nc2ccccc2)[C@@H](CO)[C@@H]2Cn3c(ccc(-c4ccncc4)c3=O)[C@@H]21,0,1
C[C@@H]1CN([C@H](C)CO)C(=O)c2cc(NS(=O)(=O)c3cccs3)ccc2O[C@@H]1CN(C)C,9,2
C[C@@H]1CN([C@H](C)CO)S(=O)(=O)c2ccc(-c3cccnc3)cc2O[C@H]1CN(C)C(=O)NC1CCCCC1,15,9
C[C@@H]1CN([C@H](C)CO)S(=O)(=O)c2ccc(/C=C/c3ccccc3)cc2O[C@@H]1CN(C)C(=O)C1CC1,-23,-27
CC(C)NC(=O)Nc1ccc2c(c1)CC(=O)N([C@H](C)CO)C[C@H](C)[C@H](CN(C)C(=O)Nc1ccccc1)O2,8,9
N#C[C@H]1[C@H](c2ccc(C#CC3CC3)cc2)[C@H](CO)N1C(=O)Cc1ccccn1,15,76
O=C(CN1CCOCC1)N1CC(=O)N2[C@H](CO)[C@@H](c3ccc(-c4ccccc4)cc3)[C@H]2C1,-13,-14
CCCNC(=O)[C@H]1[C@H](CO)[C@H]2Cn3c(ccc(-c4ccc(F)cc4)c3=O)[C@@H]1N2C(=O)NC(C)C,15,5
CCCC#Cc1cnc2c(c1)C(=O)N([C@H](C)CO)C[C@H](C)[C@H](CN(C)Cc1ccccc1F)O2,-14,-11
Cc1noc(C)c1S(=O)(=O)N(C)C[C@@H]1Oc2c(NC(=O)C3CC3)cccc2C(=O)N([C@H](C)CO)C[C@@H]1C,13,11
O=C(CC1CC1)N1[C@H](CO)[C@H]2c3ccccc3N(S(=O)(=O)c3ccccc3F)C[C@H]21,-10,-12
O=C(C[C@@H]1CC[C@H]2[C@@H](COC[C@H](O)CN2C(=O)Cc2ccccc2)O1)NC1CCC1,-3,-2
Cc1ccc(CN2CC(=O)N3[C@H](C2)[C@H](c2ccc(-c4ccccc4F)cc2)[C@@H]3CO)cc1,8,5
CN1CCN(C(=O)[C@@H]2[C@@H](CO)[C@@H]3Cn4c(ccc(C5=CCCCC5)c4=O)[C@H]2N3S(C)(=O)=O)CC1,-3,-1
C[C@H](O)C#Cc1cnc2c(c1)C(=O)N([C@H](C)CO)C[C@H](C)[C@H](CN(C)C(=O)CN(C)C)O2,5,1
C[C@H]1CN([C@@H](C)CO)C(=O)c2cc(NC(=O)Cc3ccccc3)ccc2O[C@@H]1CN(C)CC1CC1,28,24
Cc1noc(C)c1S(=O)(=O)Nc1ccc2c(c1)C(=O)N([C@H](C)CO)C[C@@H](C)[C@H](CN(C)C(=O)Nc1ccc(F)cc1)OCCCC[C@H](C)O2,-8,-11
O=C(Cc1ccncc1)N[C@@H]1CC[C@@H](CCn2cc(-c3ccccc3F)nn2)O[C@H]1CO,-1,-1
OC[C@H]1[C@@H](c2ccc(-c3ccccc3F)cc2)[C@@H]2CN(Cc3cncnc3)CCCCN12,-8,-6
O=C(C1=C[C@H](c2ccc3c(c2)OCO3)C[C@H](OCCCCO)O1)N1CCOCC1,16,17
Cc1ccccc1-c1cnc2c(c1)C(=O)N([C@H](C)CO)C[C@H](C)[C@@H](CN(C)Cc1cccnc1)O2,-13,-8
CN1C[C@@H]2[C@H](c3ccccc31)[C@@H](CO)N2C(=O)C1CCCCC1,1,-4
O=C(C[C@@H]1CC[C@H](NC(=O)Cc2ccccn2)[C@@H](CO)O1)NCCc1ccccc1,2,-2
CCCNC(=O)Nc1ccc2c(c1)OC[C@@H](C)N(C(C)=O)C[C@H](C)[C@H](OC)CN(C)C2=O,-2,4
N#C[C@@H]1[C@@H](c2ccc(-c3cncnc3)cc2)[C@H](CO)N1C(=O)Cc1ccccc1,5,0
CC=Cc1ccc2n(c1=O)C[C@H]1[C@H](CO)[C@@H](C(=O)NCC)N(CC3CCOCC3)[C@@H]21 (mixture of isomers),11,3
CCCNC(=O)N[C@@H]1C=C[C@H](CC(=O)NC2CCC2)O[C@@H]1CO,-4,1
Cc1ccccc1S(=O)(=O)NCC[C@@H]1CC[C@@H](NC(=O)C2CCCCC2)[C@@H](CO)O1,5,5
C[C@@H](NC(=O)C[C@@H]1C=C[C@@H](NC(=O)c2cccnc2)[C@@H](CO)O1)c1ccccc1,7,12
Cc1noc(C)c1NC(=O)Nc1cccc2c1O[C@H](CN(C)Cc1ccc(-c3ccccc3)cc1)[C@@H](C)CN([C@@H](C)CO)C2=O,-11,-8
C[C@H]1CCCCO[C@@H](CN(C)Cc2ccc3c(c2)OCO3)[C@@H](C)CN([C@@H](C)CO)C(=O)c2cc(NS(=O)(=O)c3ccc(Cl)cc3)ccc2O1,?,-11
C[C@H](CO)N1C[C@H](C)[C@@H](CN(C)C(=O)Nc2ccc3c(c2)OCO3)Oc2c(NC(=O)C3CCCCC3)cccc2C1=O,8,12

# Reformatted: four of the compounds above.
O=C(Cc1ccncc1)N[C@@H]1CC[C@@H](CCn2cc(-c3ccccc3F)nn2)O[C@H]1CO
  Vaccinia inh = -1
  Vaccinia inh Venus = -1
OC[C@H]1[C@@H](c2ccc(-c3ccccc3F)cc2)[C@@H]2CN(Cc3cncnc3)CCCCN12
  Vaccinia inh = -8
  Vaccinia inh Venus = -6
O=C(C1=C[C@H](c2ccc3c(c2)OCO3)C[C@H](OCCCCO)O1)N1CCOCC1
  Vaccinia inh = 16
  Vaccinia inh Venus = 17
Cc1ccccc1-c1cnc2c(c1)C(=O)N([C@H](C)CO)C[C@H](C)[C@@H](CN(C)Cc1cccnc1)O2
  Vaccinia inh = -13
  Vaccinia inh Venus = -8

# Compounds above containing a Cl atom, in the order listed:
SMILES,Vaccinia inh,Vaccinia inh Venus
C[C@@H]1CN([C@H](C)CO)C(=O)Cc2cc(NC(=O)Cc3ccccc3)ccc2O[C@H]1CN(C)S(=O)(=O)c1ccc(Cl)cc1,4,-9
C[C@H]1CCCCO[C@@H](CN(C)Cc2ccc3c(c2)OCO3)[C@@H](C)CN([C@@H](C)CO)C(=O)c2cc(NS(=O)(=O)c3ccc(Cl)cc3)ccc2O1,?,-11

# Additional structures follow.
SMILES,Vaccinia inh,Vaccinia inh Venus
O=C(C[C@H]1CC[C@H]2[C@@H](COC[C@@H](O)CN2C(=O)Nc2cccc(Cl)c2)O1)NCC1CCCCC1,-23,-12
CN1c2ccc(C3=CCCCC3)cc2[C@H]2[C@H](CCN2C(=O)NC2CCCC2)[C@@H]1CO,?,nt
COc1cccc(S(=O)(=O)N2CCCCN3[C@H](CO)[C@@H](c4ccc(-c5cncnc5)cc4)[C@H]3C2)c1,0,-10
C/C=C/c1ccc([C@@H]2[C@@H](CN(C)C(=O)CC)N(C(=O)C3CC3)[C@H]2CO)cc1,9,3
C[C@H](CO)N1C[C@H](C)[C@H](CN(C)Cc2ccc(Oc3ccccc3)cc2)Oc2cc(-c3ccncc3)ccc2S1(=O)=O,-21,-26
COc1cccc(S(=O)(=O)N(C)C[C@H]2Oc3cc(C4=CCCC4)ccc3S(=O)(=O)N([C@H](C)CO)C[C@H]2C)c1,-26,-12
Cc1noc(C)c1NC(=O)Nc1ccc2c(c1)C(=O)N([C@H](C)CO)C[C@H](C)[C@@H](CN(C)C(=O)Nc1c(C)noc1C)O2,24,14
O=S(=O)(c1ccccc1)N1CCCCN2[C@H](CO)[C@H](c3ccc(-c4cncnc4)cc3)[C@@H]2C1,-7,-10
C[C@@H]1CN([C@H](C)CO)C(=O)Cc2cc(NC(=O)CCC(F)(F)F)ccc2O[C@H]1CN(C)CC1CC1,5,-3
CN(C)C(=O)c1cccc(-c2ccc([C@@H]3[C@H]4CN(C(=O)C5CCCCC5)CC(=O)N4[C@H]3CO)cc2)c1,5,7
Cn1cnc(S(=O)(=O)N[C@@H]2C=C[C@H](CC(=O)NCC3CCCCC3)O[C@H]2CO)c1,10,9
COc1ccc(-c2cccc(-c3nc(C(=O)NCC(F)(F)F)cc4c3[C@H](CCO)N([S@@](=O)C(C)(C)C)C4)c2)cc1,0,5
C[C@H]1CN([C@@H](C)CO)C(=O)Cc2cc(NC(=O)Nc3ccc(F)cc3)ccc2O[C@H]1CN(C)CC1CC1,-28,-20
Cc1ccc(-c2cnc3c(c2)C(=O)N([C@@H](C)CO)C[C@@H](C)[C@@H](CN(C)C(=O)Cc2ccccc2)O3)cc1,?,nt
O=C(c1ccccn1)N1C[C@@H]2[C@H](c3ccccc31)[C@H](CO)N2C(=O)Nc1ccccc1F,-3,0
CCCNC(=O)N[C@@H]1CC[C@H](CCn2cc(C3CCCCC3)nn2)O[C@@H]1CO,5,3
C[C@@H]1CN([C@@H](C)CO)C(=O)c2cc(NS(=O)(=O)c3ccc(Cl)cc3)ccc2O[C@@H](C)CCCCO[C@H]1CN(C)C(=O)CCC(F)(F)F,?,nt
COc1cccc(NC(=O)N[C@H]2C=C[C@H](CC(=O)N3CCOCC3)O[C@@H]2CO)c1,6,4
O=C(C[C@@H]1C=C[C@@H](NC(=O)CN2CCOCC2)[C@H](CO)O1)NCc1cccc(F)c1,-2,7
CN(C)C(=O)c1cccc(-c2cccc(-c3nc(C(=O)N4CCCCC4)cc4c3[C@@H](CCO)N([S@](=O)C(C)(C)C)C4)c2)c1,7,19

# Profiles, quoted from the list. Screens in order: Vaccinia inh	Vaccinia inh Venus
# CN1CCN(C(=O)[C@@H]2[C@@H](CO)[C@@H]3Cn4c(ccc(C5=CCCCC5)c4=O)[C@H]2N3S(C)(=O)=O)CC1 across the screens: -3	-1
# CCN1[C@H](C(=O)Nc2ccccc2)[C@@H](CO)[C@@H]2Cn3c(ccc(-c4ccncc4)c3=O)[C@@H]21 across the screens: 0	1

# Other compounds follow.
SMILES,Vaccinia inh,Vaccinia inh Venus
CS(=O)(=O)Nc1ccc2c(c1)[C@@H]1C[C@H](CC(=O)NCc3ccccn3)O[C@H](CO)[C@@H]1O2,8,9
C[C@@H]1CN([C@H](C)CO)C(=O)c2cccc(NS(=O)(=O)c3cccs3)c2O[C@H]1CN(C)CC1CC1,10,4
O=C(Nc1ccccc1)N[C@H]1CC[C@@H](CCn2cc(-c3ccccc3F)nn2)O[C@H]1CO,-10,-6
CO[C@H]1CN(C)C(=O)c2cc(NC(=O)C3CC3)ccc2OC[C@H](C)N(C(C)=O)C[C@H]1C,13,15
C[C@H](NC(=O)C[C@@H]1C[C@@H]2c3cc(NS(C)(=O)=O)ccc3O[C@@H]2[C@H](CO)O1)c1ccccc1,0,-4
CCCNC(=O)C[C@@H]1CC[C@@H]2[C@H](COc3ccc(NC(=O)CC)cc3C(=O)N2C)O1,-1,4
CCCNC(=O)N1[C@@H]2c3ccc(-c4ccc(OC)cc4)c(=O)n3C[C@H]1[C@H](CO)[C@H]2C(=O)NC1CCC1,5,3
C[C@@H]1CN([C@@H](C)CO)C(=O)c2cc(C#CCN(C)C)cnc2O[C@H]1CN(C)C(=O)c1ccc(F)cc1,14,7
N#C[C@@H]1[C@H](c2ccc(-c3cccc(F)c3)cc2)[C@@H](CO)N1C(=O)CN1CCOCC1,7,3
C[C@@H]1CN([C@@H](C)CO)C(=O)Cc2cc(NC(=O)CCN3CCOCC3)ccc2O[C@@H]1CN(C)Cc1ccc2c(c1)OCO2,8,9
C[C@H]1CCCCO[C@@H](CN(C)C(=O)Nc2cccc3ccccc23)[C@@H](C)CN([C@@H](C)CO)C(=O)c2cc(NS(=O)(=O)c3ccccc3)ccc2O1,41,20
C[C@@H]1CCCCO[C@@H](CN(C)C(=O)c2ccncc2)[C@@H](C)CN([C@@H](C)CO)C(=O)c2cc(NS(=O)(=O)c3ccc(F)cc3)ccc2O1,30,9
C[C@@H]1CCCCO[C@@H](CN(C)C(=O)c2ccccc2)[C@@H](C)CN([C@H](C)CO)C(=O)c2cc(NC(=O)Cc3ccccc3)ccc2O1,19,5
C/C=C/c1cnc2c(c1)C(=O)N([C@H](C)CO)C[C@H](C)[C@H](CN(C)C(=O)Nc1ccc(C(F)(F)F)cc1)O2,-16,-22
C[C@@H]1CN([C@@H](C)CO)C(=O)CCCn2nncc2CO[C@@H]1CN(C)C(=O)Oc1cccc2ccccc12,5,13
C[C@H]1CN([C@@H](C)CO)C(=O)Cc2cc(NS(=O)(=O)c3ccc(Cl)cc3)ccc2O[C@@H]1CN(C)C(=O)Nc1ccc(F)cc1,16,12
CCC(=O)Nc1ccc2c(c1)C(=O)N(C)[C@@H]1CC[C@H](CC(=O)NCc3ccccc3Cl)O[C@H]1CO2,-16,-10
C[C@@H]1CN([C@@H](C)CO)C(=O)Cc2cc(NS(=O)(=O)c3ccc(Cl)cc3)ccc2O[C@@H]1CN(C)C(=O)Nc1ccc(C(F)(F)F)cc1,-9,1
C[C@@H]1CN([C@H](C)CO)S(=O)(=O)c2ccc(C#CC3(O)CCCC3)cc2O[C@@H]1CN(C)C(=O)c1ccncc1,13,8
Cc1noc(C)c1NC(=O)N[C@H]1CC[C@H](CCNC(=O)C2CC2)O[C@@H]1CO,7,3
C/C=C/c1ccc([C@@H]2[C@H]3CN(C(=O)Nc4ccccc4F)CCCCN3[C@H]2CO)cc1,2,-13

# Not all compounds are listed, so the mix of outcomes need not match the whole.
